Mtb betalactam – beta-lactam sensitization of Mtb H37Rv. AID 434955. inhibition, % at 25 µM. hit rate 0.27% among 330,000. M. tuberculosis H37Rv growth with meropenem, percent inhibition; hits of this screen are not shown here;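 active = about 74% or more and at least 40 points above the plate without the antibiotic, then above 30% in a dose series; inconclusive = first-round hits that could not be retested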;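 note: growth measured after seven days incubation then overnight dye step; 0% = bacteria only wells and 100% = bacteria with antibiotic; twin plates without the antibiotic show which effects depend on it; some results filed as inactive read as strong as hits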
Mtb growth – M. tuberculosis H37Rv growth inhibitors, H37Rv strain (AID 1626) | inhibition, % at 10 µM, or IC50 in µM where a hit was titrated | hit rate 0.95% among 220,000 | M. tuberculosis H37Rv growth inhibition; higher % means a stronger effect;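 active = confirmed in a dose series; inconclusive = inhibition above 80% but not taken into the dose series; inactive = below 80% or under 30% at every dose of the series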;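 note: bacteria incubated seven days before Alamar blue readout; 0% = bacteria only wells and 100% = bacteria with antibiotic wells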
Arbovirus anti – blocks arbovirus infection. arbovirus infection cell-based antiviral screen. AID 1251. hit rate 0.37% among 200,000. inhibition, % at 10 µM;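 active = inhibition from about 30%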;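 note: bluetongue infection of BSR cells; cell survival read as ATP light after 72 h; 0% = infected wells without compound and 100% = uninfected wells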
YopH PTP inh – inhibitors of Yersinia enterocolitica YopH tyrosine phosphatase; fluorescence Ex485/Em525; inhibition, %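 (about 10 µM by stock and volumes)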; hit rate 0.16% among 140,000; AID 898;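 active = inhibition of 50% or more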;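 note: controls were vehicle for no effect and minimum signal wells for full effect; inactives centre near -20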
RecA splice inh – inhibitors of M. tuberculosis RecA intein splicing. cell-free RecA intein splicing, fluorescence. AID 2221. hit rate 0.75% among 290,000. inhibition, %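 (about 9 µM by stock and volumes)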; in the data active = inhibition above about 30%; inconclusive = no clear call, values can overlap the other calls;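 note: 0% = vehicle wells and 100% = reference inhibitor control wells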
Target sequence (P9WHJ3 whole entry, looked up, canonical isoform): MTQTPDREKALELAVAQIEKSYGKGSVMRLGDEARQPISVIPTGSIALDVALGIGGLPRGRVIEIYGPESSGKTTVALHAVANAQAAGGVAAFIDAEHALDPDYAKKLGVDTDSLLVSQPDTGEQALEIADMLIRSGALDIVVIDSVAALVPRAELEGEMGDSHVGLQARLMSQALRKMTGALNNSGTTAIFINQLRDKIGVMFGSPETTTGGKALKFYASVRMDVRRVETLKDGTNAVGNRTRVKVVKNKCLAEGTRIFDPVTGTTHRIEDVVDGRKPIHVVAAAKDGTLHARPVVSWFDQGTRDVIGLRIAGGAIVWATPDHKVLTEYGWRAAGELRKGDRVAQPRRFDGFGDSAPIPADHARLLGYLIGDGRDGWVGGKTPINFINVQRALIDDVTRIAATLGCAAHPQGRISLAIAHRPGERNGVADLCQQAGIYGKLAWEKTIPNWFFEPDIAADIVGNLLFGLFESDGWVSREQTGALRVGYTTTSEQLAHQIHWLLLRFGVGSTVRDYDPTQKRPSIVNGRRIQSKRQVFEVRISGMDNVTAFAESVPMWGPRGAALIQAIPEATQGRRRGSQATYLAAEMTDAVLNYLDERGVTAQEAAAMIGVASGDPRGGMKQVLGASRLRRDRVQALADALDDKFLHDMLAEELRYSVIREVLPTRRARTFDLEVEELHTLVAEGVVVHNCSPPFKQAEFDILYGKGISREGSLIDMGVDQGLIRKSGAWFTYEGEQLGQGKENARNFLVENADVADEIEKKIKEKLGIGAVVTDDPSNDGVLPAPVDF
Arbovirus anti repeat – recorded beside Arbovirus anti, whose call it bears; inhibition, %; measured here: 10K subset replicate screen; many hits read low in the repeat;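 first of two repeat runs on a subset; 0% = infected and 100% = uninfected wells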
* = called active by the depositor; ? = inconclusive; . = no result given.

SMILES	Mtb betalactam	Mtb growth	Arbovirus anti	YopH PTP inh	RecA splice inh	others
O=c1[nH]c(Nc2ccccc2Cl)cc2ccccc12	-9	-4%	.	.	86*
COc1ccc(C(=O)CC(c2ccccc2)C2CCCCC2=O)cc1 (centres undefined)	11	-3%	8	-15	0.7
COc1ccccc1NC(=O)c1ccc(-n2cncn2)nc1	0	1%	4	.	0.3
CCOc1ccc(N=Cc2c(C)[nH]n(-c3nc4ccccc4[nH]3)c2=O)cc1	95	?	-25	-17	0.0
COc1ccc(N2CCN(C(=O)COc3cccc4ccccc34)CC2)cc1	-6	.	.	.	5.8
O=C(NCCCc1ccncc1)C1CCC(=O)N(Cc2cccc(F)c2)C1 (centres undefined)	-11	.	.	.	2.3
CCOC(=O)c1c[nH]c2c(Cl)c(Cl)ccc2c1=O	2	-2%	6	-18	0.1
O=C(CSc1nnc(NC(=O)C2CCC2)s1)Nc1ccccc1Br	2	.	.	.	2.8
Cc1c(Cl)cccc1NC(=O)c1ccc(OCC(=O)NCc2ccccc2)cc1	8	.	-7	-29	0.1
CC(=O)Nc1ccc(Nc2ccc(N3C(=O)CCCC3=O)cc2[N+](=O)[O-])cc1	12	-2%	2	-13	1.0
CC(=O)Nc1ccc(Nc2c([N+](=O)[O-])cc(S(C)(=O)=O)cc2[N+](=O)[O-])cc1	-1	1%	-2	2	-0.4
O=C(NCc1ccccc1)c1ccccc1-c1nc2ccccc2[nH]1	5	5%	5	.	5.9
CC(=O)c1ccc(OCc2ccccc2)c(C)c1O	6	9%	-4	-37	0.7
COc1ccc(-c2csc(NC(=O)C(CC(=O)O)N3CCOCC3)n2)cc1 (centres undefined)	4	.	.	.	1.9
COc1ccc(/C=N/NC(=O)c2ccco2)cc1Cn1nc(C)c([N+](=O)[O-])c1C	-11	7%	3	.	-2.7
CC1=Nc2cc(C(=O)NCCN3CCOCC3)ccc2Sc2c(C)ccc(C)c21	7	.	.	.	2.3
COC(=O)CNC(=O)CSc1nc2sc(-c3ccccc3)cc2c(=O)n1-c1ccccc1	97	.	.	.	8.4
CCN(CC)CCOC(=O)c1ccc(N/C=C(/C#N)c2nc(-c3ccc4c(c3)OCO4)cs2)cc1	99	14µM*	.	.	-7.3
Cc1ccc(NC(=S)NCCc2ccc(F)cc2)c(C)c1	-1	7%	1	-15	0.1
CCN(Cc1cccc(F)c1)C(=O)c1ccc2ccccc2n1	5	.	.	.	-1.0
N#Cc1nc(COc2ccc(-c3ccccc3)cc2)oc1NCc1cccnc1	3	35%	-32	-23	24
O=C(NCCCn1ccnc1)c1nc(Cn2cc([N+](=O)[O-])cn2)no1	-6	.	.	.	0.4
COc1ccc(N2CCN(C(=O)COc3ccccc3)CC2)cc1	2	4%	10	-47	.
Cc1ccc(N2C(=O)CSC2=S)cc1C	-4	-5%	-2	.	16
N#CC1=C(N)Oc2cc(O)ccc2C1c1ccccc1 (centres undefined)	-9	-2%	-5	-7	-6.0

Reprinted from the part before: three compounds, then new ones.
SMILES	Mtb betalactam	Mtb growth	Arbovirus anti	YopH PTP inh	RecA splice inh	others
COc1ccc(N2CCN(C(=O)COc3ccccc3)CC2)cc1	2	4%	10	-47	.
Cc1ccc(N2C(=O)CSC2=S)cc1C	-4	-5%	-2	.	16
N#CC1=C(N)Oc2cc(O)ccc2C1c1ccccc1 (centres undefined)	-9	-2%	-5	-7	-6.0
O=C(NC1CCCCC1)C(c1ccccc1)N1CCCC1 (centres undefined)	0	1%	2	-3	-0.7	Arbovirus anti repeat=3
O=C(O)CC(CC(=O)N1CCN(C(=O)c2ccco2)CC1)c1ccccc1 (centres undefined)	3	.	.	.	-3.3
O=C(NCC1CCCCC1)C1(CC2CC(c3ccc(Cl)cc3)=NO2)CCNCC1 (centres undefined)	35	.	.	.	-0.9
CCN(CC)S(=O)(=O)c1cc(NC(=O)CN2CCN(c3ccccn3)CC2)ccc1C	-1	7%	-9	.	2.4
COc1ccc(N2CCN(S(=O)(=O)c3ccc4c(c3)CCCC4)CC2)c([N+](=O)[O-])c1	0	-2%	19	-27	0.2
C/C(=N\NC(=O)c1cc2c(s1)CCC(C)C2)c1ccncc1 (centres undefined)	97	7%	-5	-27	-3.1
CCN1CCN(c2cc(N3CCN(C(=O)c4ccco4)CC3)c3c4c(onc24)-c2ccccc2C3=O)CC1	74	.	.	.	12
CCOC(=O)C1C(=O)CC(C)(O)C(C(=O)OCC)C1c1ccc(N(CC)CC)cc1 (centres undefined)	-2	0%	7	-19	-1.6
Cc1cc(NC(=O)C2C3C(=O)N(CC4CCCO4)C(C(=O)NC(C)(C)C)C34C=CC2(C)O4)no1 (centres undefined)	-2	-2%	4	.	-0.9
CC12CCC(=O)N1C(C(=O)Nc1cccc3ccccc13)CS2 (centres undefined)	0	-4%	-2	.	2.9
COc1nnc(-c2ccc(N3CCCCC3)c(NC(C)=O)c2)c2ccccc12	12	2%	-2	-21	3.6
Nc1nonc1-n1nnc(C(=O)N/N=C/c2ccncc2)c1-c1ccccc1	6	.	.	.	0.0
O=C(CSCC(=O)c1ccccc1)Nc1ccccc1Cl	65	-1%	-10	-29	-0.9
O=C(CSc1ccc2nnc(-c3ccncc3)n2n1)Nc1ccccc1F	1	0%	9	-3	-1.6
O=C(Nc1ncn[nH]1)c1ccccc1O	0	-6%	.	.	-0.3
OC[C@@H]1CCCN1Cc1nc(-c2cccs2)no1	0	5%	3	.	-0.3
COc1ccccc1-n1cnc2cc(NCc3cccs3)ccc21	76	5%	-20	-16	12
CN1C(=O)NC(=O)/C(=C\C=C\c2ccccc2[N+](=O)[O-])C1=O	3	3%	4	.	-0.8
COc1ccc(C(=O)N/N=C/c2sc3ccccc3c2O)cc1	67	6%	-31	-24	-11
CC(C)CN(C(=O)COC(=O)C12CC3CC(CC(Cl)(C3)C1)C2)c1c(N)n(Cc2ccccc2)c(=O)[nH]c1=O	-2	.	.	.	-2.9
COC(=O)c1cc2occc2n1CC(=O)Nc1ccc(OC)c(OC)c1OC	0	-1%	-1	7	-1.5
COc1ccc(S(=O)(=O)N2CCOc3ccccc32)cc1	-3	.	.	.	2.8
Cc1c(-n2c(SCC(C)C)nc3ccccc3c2=O)c(=O)n(-c2ccccc2)n1C	0	2%	1	.	-0.5
C=C(C)[C@@H]1CC=C(C(=O)O)CC1	2	-10%	.	.	-2.9
CCOc1ccc(NS(=O)(=O)c2ccc(NC(=S)NC(=O)CC(C)C)cc2)cc1	76	10%	-32	5	-2.8

Of the compounds above, three have a COOH group.
SMILES	Mtb betalactam	Mtb growth	Arbovirus anti	YopH PTP inh	RecA splice inh	others
COc1ccc(-c2csc(NC(=O)C(CC(=O)O)N3CCOCC3)n2)cc1 (centres undefined)	4	.	.	.	1.9
O=C(O)CC(CC(=O)N1CCN(C(=O)c2ccco2)CC1)c1ccccc1 (centres undefined)	3	.	.	.	-3.3
C=C(C)[C@@H]1CC=C(C(=O)O)CC1	2	-10%	.	.	-2.9

The main list resumes; the 2 compounds before the break are reprinted first.
SMILES	Mtb betalactam	Mtb growth	Arbovirus anti	YopH PTP inh	RecA splice inh	others
C=C(C)[C@@H]1CC=C(C(=O)O)CC1	2	-10%	.	.	-2.9
CCOc1ccc(NS(=O)(=O)c2ccc(NC(=S)NC(=O)CC(C)C)cc2)cc1	76	10%	-32	5	-2.8
CCc1cc(=O)oc2cc(C)cc(OCC(=O)N3CCC(C(=O)NC(C)C)(c4ccccc4)CC3)c12	-4	.	.	.	3.3
COc1ccc(NC(=S)NCc2ccc3c(c2)OCO3)cc1	-3	6%	4	.	-1.7
COC(=O)c1nnn(-c2cc(Cl)cc(Cl)c2)c1C(=O)OC	1	0%	.	.	8.2
O=C(COC(=O)CN1C(=O)c2cccc([N+](=O)[O-])c2C1=O)NC1CCS(=O)(=O)C1 (centres undefined)	-5	.	.	.	-6.5
CC(=O)c1ccc(S(=O)(=O)NC2CC(=O)N(c3ccc(C)cc3)C2)cc1 (centres undefined)	-4	.	.	.	0.7
Cc1ccc(CNC(=O)C2CCC(=O)N(Cc3ccc(Cl)cc3)C2)cc1F (centres undefined)	-5	.	.	.	2.0
Cc1cccc(-n2ncc(C(=O)NC3CCCC3)c2C2CCN(C(=O)OC(C)(C)C)CC2)c1	2	.	.	.	0.4
CCOCCOC(=O)c1ccc(NC(=O)C2COc3ccccc3O2)cc1 (centres undefined)	91	.	.	.	-2.7
Clc1ccc(OCCn2ccnc2)cc1Cl	-18	.	.	.	2.1
COP(=O)(OC)C1(Nc2ccc(C)cc2)CCCCC1	16	18%	7	-5	-0.9
Cc1nc(N)nc(-c2ccccc2O)n1	-1	0%	1	-16	-2.6
COc1cccc2c1cc1c(=O)n(CC(=O)NCCCN3CCCCC3)nc(C)n12	8	.	.	.	-0.6
CCOC(=O)C1=C(C)N(c2ccc(C)c(C)c2)C(=O)/C1=C\c1ccco1	-3	3%	4	0	-3.6
CCOc1ncccc1C(=O)NNC(=O)c1csc(N2CCOCC2)n1	24	.	.	.	-1.4
O=C1c2cccc3c([N+](=O)[O-])ccc(c23)C(=O)N1CCc1ccccn1	100	?	.	.	-67
Cc1cc(/C=N/NC(N)=S)c(C)n1-c1cccc(Cl)c1	96	64%	-5	.	1.6
COc1ccc(/C=N/NC(=O)Cc2csc(Nc3cccc(C(F)(F)F)c3)n2)c(OC)c1	-4	0%	-11	-26	1.8
CCCOc1ccc(C(=O)NCCO)cc1	-9	-8%	5	-2	0.3
COc1ccc(OCCCC(=O)Nc2ccc3c(c2)OCCO3)cc1	-1	37%	-3	-33	4.4
CN1CCN(c2nc3ccccc3c(=O)n2-c2ccccc2)CC1	4	3%	-3	-19	-3.7	Arbovirus anti repeat=-2
O=C(NCc1ccc(F)cc1)c1ccc2c(c1)S(=O)(=O)c1ccccc1C2=O	-6	-6%	.	.	-1.1
COc1ccc(S(=O)(=O)N2CCCC2CNC(=O)C(=O)NCc2ccc3c(c2)OCO3)cc1 (centres undefined)	0	.	.	.	1.3
CN(C)S(=O)(=O)c1ccc(N2CCCC2)c(C(=O)Nc2nc3ccccc3s2)c1	-8	6%	-17	-25	6.5
COc1ccccc1C(=O)OCc1ccc2sc(C)nc2c1	9	77%	2	.	3.6
COC(=O)Nc1ccccc1C(=O)N1CCCCC1	1	0%	3	-38	-3.4
COc1ccc(C(=O)c2sc3nc(C)cc(-c4cccs4)c3c2N)cc1OC	1	1%	12	-16	-46

Two entries drawn at random from the list so far:
SMILES	Mtb betalactam	Mtb growth	Arbovirus anti	YopH PTP inh	RecA splice inh	others
COc1ccc(N2CCN(C(=O)COc3ccccc3)CC2)cc1	2	4%	10	-47	.
Cc1c(Cl)cccc1NC(=O)c1ccc(OCC(=O)NCc2ccccc2)cc1	8	.	-7	-29	0.1

From PubChem BioAssay

An excerpt; rates above refer to the full screens.
